Screening results from PubChem BioAssay.
VACV Venus inh: inhibitors of vaccinia virus (Venus reporter); Vaccinia virus Venus reporter expression, fluorescence; Potency, µM (highest dose often 36.5 µM), inactives show at the top dose activity change, negative = inhibition, actives largely listed as inhibitors; 330,000 tested, 0.46% active; active means well fitted inhibition curve with a large enough effect; inconclusive means small, poorly fitted or top-dose-only effect; inactive means no such curve, though single readings can be large or run the other way; tested in A549 cells; further: nearly all actives have a fitted effect of over 30% in size; inactives centre near -10
VACV mCherry inh: vaccinia inhibition (mCherry reporter); 310,000 tested, 0.63% active; Potency, µM (top dose mostly 36.5 µM), inactives show at the top dose activity change, negative = inhibition, hits mostly inhibitors; Vaccinia virus mCherry reporter infection, fluorescence; about a quarter of the inactives have no number; active = well fitted inhibition curve with a large enough effect; inconclusive = small, poorly fitted or top-dose-only effect; inactive = no such curve, though single readings can be large or run the other way; tested in A549 cells; further: nearly all actives have a fitted effect of over 35% in size; inactives centre near -10
Active calls of the source: *; i = inactive; ? = inconclusive; . = not tested or not shown; [ ] = dose if it differs, or a comment. On the % scale 0 is the no-effect control and ±100 the full control effect; potency means the concentration at half of the fitted maximal effect. Compounds as they come, and some 0.86% of all compounds hit somewhere here.

Every second line gives: VACV Venus inh | VACV mCherry inh
1: O=C(c1c(F)cccc1Cl)N(Cc1ccco1)C1CCS(=O)(=O)C1 (stereo not drawn)
    -3% | i
2: Cc1cc(I)ccc1Nc1nc(NCCN2CCOCC2)nc(N2CCOCC2)n1
    -17% | -7%
3: O=C(CCSCc1cccc(Cl)c1)N1CCN(c2ccc(Cl)cc2)CC1
    0% | -3%
4: COc1ccc2c(c1)CC(C(=O)NCCc1ccc(S(N)(=O)=O)cc1)CO2 (stereo not drawn)
    -4% | -9%
5: CC1CC(C)CN(C(=O)c2cc3c(s2)CCC3)C1 (stereo not drawn)
    3% | -19%
6: NC(=O)C1CCN(C(=O)NC(=O)c2ccccc2)CC1
    -2% | i
7: COc1ccccc1NC(=O)c1ccc(-n2ccnc2)c([N+](=O)[O-])c1
    -2% | -11%
8: Cc1ccc(-c2nc3sc(CCNC(=O)c4ccc(Br)o4)c(C)n3n2)cc1
    -3% | -8%
9: O=C1NC(=O)N(c2cccc(Br)c2)C(=O)/C1=C/c1ccsc1
    1% | -4%
10: C=CC[C@@H](CC(=O)N[C@@H](CO)Cc1ccccc1)C(=O)NCCOC(=O)[C@@H](CC=C)Cc1ccc(F)cc1
    -7% | -7%
11: Cc1ccc(C)c(S(=O)(=O)NCc2ccc(C(=O)NCc3ccccn3)cc2)c1
    -23% | .
12: COc1cccc(CNC(=O)c2ccc3nc(-c4ccccc4)c(-c4ccccc4)nc3c2)c1OC
    -17% | -22%
13: CCn1cc(-c2ccccc2)c(C(=O)O)c1-c1ccc(OC)cc1
    -8% | i
14: CCNC(=O)Cn1cnc2c1c(=O)n(C)c(=O)n2C
    7% | -4%
15: Fc1cc(Cl)cc2ccc(-c3ccccc3)nc12
    3% | 14%
16: C=Cc1ccc(Cn2c(C(=O)O)c(C=O)c3ccccc32)cc1
    -4% | -10%
17: CCC(=O)Nc1c(C(=O)Nc2ccc3c(c2)OCCO3)oc2ccccc12
    4% | i
18: CCOC(=O)/C(C(=O)Nc1ccc(Br)cc1)=C1/NC(C)(C)Cc2ccccc21
    -8% | -11%
19: COc1ccc(N(CC(=O)NCCC2=CCCCC2)S(=O)(=O)c2ccc(C)cc2)cc1OC
    -4% | 0%
20: Oc1ccc(Br)cc1/C=N/NC(=S)NCCc1ccccc1
    -11% | 1µM*
21: S=C(NCCc1ccccc1)NC1CC1
    -4% | -13%
22: COc1ccc(N/C=C\C(=O)c2ccc(C)cc2)cc1OC
    -7% | -12%
23: O=C(COc1ccc(Cl)cc1Cl)NCCN1CCCC1
    -9% | -27%
24: CC(Oc1ccc(Cl)cc1)C(=O)Nc1ccc(S(=O)(=O)N2CCOCC2)cc1 (stereo not drawn)
    -2% | 1%
25: O=C(Nc1nnc(SCc2ccccc2)s1)c1cccs1
    -11% | i
26: CCCCn1c(/N=C/c2ccccc2NS(=O)(=O)c2ccc(C)cc2)nc2ccccc21
    -18% | -8%
27: CCOCCc1nn2c(=O)cc(COC(=O)c3ccc(NC(=O)C4CCCCC4)cc3)nc2s1
    -11% | -5%
28: CCOc1ccc(-n2ccnc2SCC(=O)Nc2cc(C)on2)cc1
    -10% | -16%
29: O=C(CSc1nnc(-c2ccccc2F)n1C1CC1)NC(=O)c1cccc([N+](=O)[O-])c1
    -2% | i
30: COCC(=O)Nc1cc(C(=O)N2CCCC(C(C)=O)C2)cc2nc(-c3ccccc3)n(C)c12 (stereo not drawn)
    -12% | -11%

Single records, as listed above. Order of screens: VACV Venus inh, VACV mCherry inh
Shown for COCC(=O)Nc1cc(C(=O)N2CCCC(C(C)=O)C2)cc2nc(-c3ccccc3)n(C)c12 (stereo not drawn) → -12%, -11%
Shown for Cc1ccc(-c2nc3sc(CCNC(=O)c4ccc(Br)o4)c(C)n3n2)cc1 → -3%, -8%

The main list resumes, starting two compounds before the break.
Every second line gives: VACV Venus inh | VACV mCherry inh
29: O=C(CSc1nnc(-c2ccccc2F)n1C1CC1)NC(=O)c1cccc([N+](=O)[O-])c1
    -2% | i
30: COCC(=O)Nc1cc(C(=O)N2CCCC(C(C)=O)C2)cc2nc(-c3ccccc3)n(C)c12 (stereo not drawn)
    -12% | -11%
31: CC(NC(=S)NC1CCCCC1)c1ccc(C(C)(C)C)cc1 (stereo not drawn)
    ? | -18%
32: CC(C)Cn1c(-c2ccco2)csc1=Nc1cccnc1
    1% | -6%
33: CC1COCC(C)N1C(=O)c1cccnc1 (stereo not drawn)
    -11% | -14%
34: COc1cc(-n2nc(C)c3c2OC(N)=C(C#N)C3c2ccccc2)c(Cl)c(Br)c1O (stereo not drawn)
    -22% | 0%
35: Cc1ccc(C(O)(C(=O)OC(C)C)C(O)c2ccc(F)cc2)cc1 (stereo not drawn)
    -23% | -24%
36: CC1(C(=O)NS(=O)(=O)C2CC2)CCCN(C(=O)Cc2ccc(F)cc2)C1 (stereo not drawn)
    -4% | 44%[activator]
37: O=C(CN1CCN(c2ccccc2)CC1)c1ccc2cc[nH]c2c1
    -16% | ?
38: COc1ccc(-c2csc(NC(=O)c3ccc(S(=O)(=O)N4CCc5ccccc5C4)cc3)n2)c(OC)c1
    -27% | ?
39: O=C(Cc1ccc(F)cc1)NCCc1ccccc1
    -1% | i
40: CCOC(=O)C1CCN(C(c2ccc(C)cc2)c2sc3nc(-c4ccco4)nn3c2O)CC1 (stereo not drawn)
    -7% | -7%
41: O=C(COC(=O)C1CC2CCCC(C1)C2=O)NC(=O)c1ccc(OC(F)F)cc1 (stereo not drawn)
    -9% | i
42: Cc1cccc(C)c1C(=O)N[C@@H](Cc1ccccc1)C(=O)O
    -18% | i
43: Cc1cc(C)c2[nH]c(=O)c(CN(Cc3nnnn3C3CCCC3)C3CCCCC3)cc2c1
    -4% | i
44: O=C(COc1ccccc1)OCc1cc2ccccc2[nH]c1=O
    -4% | i
45: CCc1nn(CC(=O)NCCc2ccc(S(N)(=O)=O)cc2)c(=O)c2cc3sccc3n12
    -21% | i
46: CC(C)Nc1nc(SCC(N)=O)nc(N2CCOCC2)n1
    -3% | -11%
47: Cc1ccccc1N(CC(=O)Nc1ccccc1C(=O)NCc1ccco1)S(=O)(=O)c1ccccc1
    ? | i
48: CCC(C)(C)NC(=O)C(c1ccc(OC)cc1)N(C(=O)CCC(=O)Nc1cc(C)on1)c1cccc(OC)c1 (stereo not drawn)
    -3% | -12%
49: CN1C(=O)[C@H]2[C@@H](/C=C/c3ccccc3)N3C(=O)CN(Cc4ccc(-c5ccccc5)cc4)C(=O)[C@@]3(C)[C@H]2C1=O
    ? | -2%
50: COC(=O)CNC(=O)c1ccccc1[N+](=O)[O-]
    -13% | -11%
51: COc1ccc(CCNc2ncnc3c2nnn3C)cc1OC
    -13% | i
52: CC(C)NC(=O)c1ccc(N(Cc2ccccc2)S(C)(=O)=O)cc1
    -8% | -13%
53: Cc1ccccc1OCC(=O)NCCNC(=O)c1cccnc1
    -7% | -10%
54: COc1cc(OC)c(NC(=O)Cn2c(=O)oc3cc(S(=O)(=O)N4CCCC4)ccc32)cc1Cl
    -18% | -21%
55: COc1ccccc1N=Nc1c(C)noc1C
    -16% | -14%
56: CN(C)/C=C1\C(=O)N(c2ccc(F)cc2F)C(c2cccnc2)S1(=O)=O (stereo not drawn)
    -6% | -9%
57: COc1ccc(CCN2CC(C(=O)Nc3cc(S(C)(=O)=O)ccc3Cl)CC2=O)cc1OC (stereo not drawn)
    -1% | -15%
58: COP(=O)(OC)C(Nc1ccc(C)cc1)c1ccc([N+](=O)[O-])cc1 (stereo not drawn)
    -10% | -13%
59: CCN(CC)CCNCc1ccc(OCc2ccc(Cl)nc2)c(OC)c1
    -4% | -5%
60: Cc1ccc(C(=O)NCCSc2c(C)[nH]c3ccccc23)cc1C
    -17% | -24%

Single entries from the entries so far:
compound 31 – VACV mCherry inh: -18%
compound 40 – VACV mCherry inh: -7%
compound 48 – VACV mCherry inh: -12%
compound 43 – VACV Venus inh: -4%

Additional compounds:
Every second line gives: VACV Venus inh | VACV mCherry inh
61: Cc1ccc(OCc2nc(C#N)c(NCCc3ccccc3)o2)cc1
    -5% | -4%
62: O=C(NC1CCSC1=O)c1cccc(C(=O)NC2CCSC2=O)c1 (stereo not drawn)
    12% | .
63: CCCN(C(=O)CCc1nc(-c2ccc(OC)cc2)no1)c1ccccc1F
    3% | -6%
64: COC(=O)C1=C(c2ccc(F)cc2OCc2ccccc2)C[C@@H]2CC[C@H]1N2C(=O)NCc1ccc(C(F)(F)F)cc1
    ? | i
65: CC(C)(CCl)C(=O)Nc1ccnc(-c2ccncc2)n1
    0% | -7%
66: CN1C=CC=C/C1=C1\SC(=S)N(CC(=O)O)C1=O
    3% | -1%
67: COc1ccc(/C=C(\C#N)c2nc3ccccc3[nH]2)cc1O
    -22% | -3%
68: NC(=O)CSc1cn(Cc2cccc(F)c2)c2ccccc12
    -16% | -11%
69: O=C(Nc1scc(-c2ccc(Br)cc2)c1C(=O)O)c1ccccc1F
    -22% | -11%
70: CCOC(=O)c1c(OCCO)nn(-c2ccccc2)c1N
    0% | -6%
71: CN(C)c1ccc(/C=N/N(CCC#N)C2=NS(=O)(=O)c3ccccc32)cc1
    -13% | i
72: O=C(NCc1ccccn1)c1cccc(S(=O)(=O)NCc2ccccc2)c1
    -11% | i
73: COCC1CCN(C(=O)c2ccc3oc(CCc4ccccc4)nc3c2)C1 (stereo not drawn)
    -4% | 12%
74: CC1(C)C(=O)NC(=O)N1Cc1ccccc1
    -3% | i
75: O=C(c1ccc(Cl)c(S(=O)(=O)N2CCCC2)c1)N1CCCC(C(F)(F)F)C1 (stereo not drawn)
    -19% | i
76: O=S(=O)(c1ccccc1)N1CCN(S(=O)(=O)c2ccccc2)CC1
    -9% | -11%
77: O=C(CCC1N=C2c3ccccc3N=C(SCc3ccccc3F)N2C1=O)NCCc1ccccc1 (stereo not drawn)
    -11% | -9%
78: COc1cc(C2c3c(oc4ccccc4c3=O)C(=O)N2c2nc(C)c(C)s2)ccc1O (stereo not drawn)
    -12% | -18%
79: O=C(NCc1ccncc1)c1cc(F)c(F)cc1Cl
    -9% | i
80: Cc1c(C=O)c(Cl)n(C)c(=O)c1C#N
    7% | 3%
81: Cn1cc(-c2cc3n(n2)CCC(=O)N3CCCC(=O)Nc2ccccc2F)c2ccccc21
    -8% | -17%
82: O=C1CCCN1CCC1CCN(C2CC(=O)N(c3ccc(Cl)cc3)C2=O)CC1 (stereo not drawn)
    -8% | -19%
83: COC(=O)C1=C(c2cccc(OCc3ccccc3)c2)C[C@@H]2CC[C@H]1N2C(=O)NCc1ccc(OC)c(OC)c1
    ? | -21%
84: CN1CCN(NC(=O)C2CC2)CC1
    -8% | i
85: Cc1ccc(-c2cc(-c3coc4ccc(Cl)cc4c3=O)c3c(n2)-c2ccccc2OC3)cc1
    -3% | -1%
86: O=C(OCC(=O)N1CCCC1=O)c1nc(Cl)ccc1Cl
    -6% | -13%
87: CCC(C)NC(=O)/C(=C/c1ccco1)c1ccccc1 (stereo not drawn)
    -9% | .
88: O=C(CN1CCCc2ccccc21)Nc1cccc(S(=O)(=O)N2CCCC2)c1
    -11% | -12%
89: O=C(CN1C(=O)/C(=C/c2ccccc2)SC1=S)NNC(=O)c1ccccc1O
    7% | -1%
90: O=C(Nc1cccc(NC(=O)c2cccs2)c1)c1ccc(Br)o1
    -20% | -6%

A different layout for some results above:
(65) CC(C)(CCl)C(=O)Nc1ccnc(-c2ccncc2)n1
  VACV Venus inh = 0%	VACV mCherry inh = -7%
(66) CN1C=CC=C/C1=C1\SC(=S)N(CC(=O)O)C1=O
  VACV Venus inh = 3%	VACV mCherry inh = -1%
(67) COc1ccc(/C=C(\C#N)c2nc3ccccc3[nH]2)cc1O
  VACV Venus inh = -22%	VACV mCherry inh = -3%

More structures follow.
Every second line gives: VACV Venus inh | VACV mCherry inh
91: C[C@@H]1CN([C@H](C)CO)S(=O)(=O)c2ccc(C3=CCCCC3)cc2O[C@H]1CN(C)C(=O)Cc1cccnc1
    -15% | i
92: Cc1cc(S(=O)(=O)Nc2ccc(C(=O)N3CCN(c4ccccc4O)CC3)cc2)ccc1F
    -23% | -4%
93: Cc1cc(C)n(C(=O)Cn2nc([N+](=O)[O-])c(Br)c2C)n1
    -10% | -3%
94: CC(=O)c1cccc(NC(=O)CCNC(=O)c2cccc(C)c2)c1
    2% | -8%
95: CCC(Sc1nc2cc(OC)c(OC)cc2c(=O)n1CCc1ccc(Cl)cc1)C(=O)NCCOC (stereo not drawn)
    -9% | -4%
96: Cc1ccc(NC(=O)c2nc(S(C)(=O)=O)ncc2N(Cc2ccco2)Cc2ccco2)cc1C
    -12% | -11%
97: CCN(CC)c1ccc(N2C(=O)CSC2=S)cc1
    113%[activator] | 68%[activator]
98: COc1ccc(N2CCN(c3cc(C(=O)NC4CCCCC4)ncn3)CC2)cc1OC
    -9% | -18%
99: CC(C)(C)OC(=O)C[C@@H]1C/C=C\C[C@@H](CC(=O)N[C@H](CO)Cc2ccccc2)C(=O)NC[C@H](c2ccccc2)OC1=O
    -18% | -8%
100: COc1cccc(NC(=O)c2ccc(C(=O)c3ccccc3)o2)c1
    -12% | -17%
101: CCCC12CN(C(=O)c3ccc([N+](=O)[O-])cc3)CC(C)(CN(C(=O)c3ccc([N+](=O)[O-])cc3)C1)C2=O
    -13% | -12%
102: CC1CC(C)CN(C(=O)CCNC(=O)Cn2ccc3ccccc3c2=O)C1 (stereo not drawn)
    -2% | -10%
103: O=C(O)c1ccc(CN2C[C@@H](CO)O[C@@H](n3cnc4c(NCc5ccco5)ncnc43)C2)cc1
    -2% | 32%[activator]
